# Sfp PPTase inh – qHTS Assay for Inhibitors of Bacillus subtilis Sfp phosphopantetheinyl transferase (PPTase) | 4'-phosphopantetheinyl transferase ffp (Bacillus subtilis), Q9F4F7 | Biochemical Sfp PPTase activity, qHTS | Potency, µM, for inactives: max response, negative = inhibition, hits mostly inhibitors | 310,000 tested, 3.5% active; active = well fitted inhibition curve with a large enough effect; inconclusive = small, poorly fitted or top-dose-only effect, or another doubt; inactive = no such curve, though single readings can be large or run the other way;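 also: the enzyme is Sfp with the accession as filed and its product quenches rhodamine fluorescence; potency is read from the fitted curve at half-maximal effect; 0% = enzyme reaction without inhibitor and -100% = no enzyme wells; top concentration of the series not given in the record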
#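 Compounds were incubated with enzyme (final 15 nM) for 15 min at room temperature before substrate addition started the reaction. Fluorescence at 525 nm excitation, 598 nm emission was recorded immediately and after 30 minutes.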
# PINK1 modulator – A Quantitative High throughput Screen to Identify Chemical Modulators of PINK1 Expression. PINK1 immunofluorescence, high-content cytometry, 24 h. Potency, µM (top dose mostly 76.6 µM), for inactives: at the highest dose activation (PINK1 increase), actives largely listed as activators. 410,000 tested, 0.2% active. AID 624263, 2012; active = well fitted activation curve with a large enough effect; inconclusive = small, poorly fitted or top-dose-only effect; inactive = flat fitted curve, though single readings scatter; cell line not stated here;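 also: potency is read from the fitted curve at half-maximal effect; % of control where 0% means no effect; nearly all actives have a fitted effect of over 65% in size; a mitochondrial uncoupler was the plate control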
#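 Compound titrations (5 concentrations, 24 h) on a stable cell line; DMSO and CCCP controls. Endpoint: fixed-cell PINK1 immunofluorescence with mitochondrial, cell and nuclear markers, scanned by microplate cytometer.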
# TRPML1 blocker – qHTS for Inhibitors of the Human Mucolipin Transient Receptor Potential 1 (TRPML1); AID 624415, 2012; Mucolipin-1 (Homo sapiens), Q9GZU1; TRPML1-inducible cells, Ca2+ dye fluorescence, FDSS; active compounds read low; inhibition of EC80 agonist-evoked calcium signal; 390,000 tested, 0.02% active; activity change, negative = inhibition, % (concentration not given with the values); in the data active means activity change below about -50%; inconclusive means about -30% to -50%; inactive means above about -30%;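 also: stimulus is agonist 54-4 at its EC80 concentration; % is scaled to controls: 0 for no effect and ±100 for the full control effect; the text of the record puts the active cut at -80%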
#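 Calcium fluorescence in TRPML1-DL cells induced overnight with Tet: a 110 s read after compound pin addition, then a 110 s antagonist read after challenge with 54-4 at 4 uM final (EC80).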
# Menin MLL FP FL – qHTS Assay for Inhibitors Targeting the Menin-MLL Interaction in MLL Related Leukemias: Competition With Fluorescein Labeled MLL-derived Peptide; Fluorescence polarization, fluorescein-MLL peptide displacement from menin; FP activity change, % at 61.4 µM; 290,000 tested, under 10 active; inconclusive = falling polarisation curve, or a change in total fluorescence; inactive = total fluorescence flat and polarisation flat or rising; no compound was filed as active; the % refers to the polarisation; negative = inhibition;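 also: % of control where 0% means no effect; inhibitors lower the polarisation; unlabelled MLL peptide was the positive control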
# TRPML1 agonist – qHTS for Agonists of the Human Mucolipin Transient Receptor Potential 1 (TRPML1); TRPML1-expressing cells, Ca2+ dye fluorescence, FDSS; host cell line not named in the record; reference of the full effect not given here; activation, % (test concentration not listed); 410,000 tested, 0.12% active; AID 624414, 2012; in the data active = activation above about 50%; inconclusive = about 30% to 50%; inactive = below about 30%; also: 0% is about no effect; the text of the record puts the active cut at 80%
#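 Agonist activity was taken from a 110 s kinetic Ca2+ dye read on the FDSS after pinning compounds onto TRPML1-DL cells. The cells were seeded at 1,500/well with Tet inducer, incubated about 16 h, then dye-loaded at room temperature.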
# TRPV1 potentiator – HTS Assay for Compounds that Act as Potentiators of the Vanilloid Receptor 1. potentiation, % at 8.33 µM. 320,000 tested, 0.02% active. TRPV1-expressing cells, Fluo-8 calcium influx, capsaicin EC20 potentiation; host cell line not named in the record; control for the full effect not named in the record. AID 540277, 2011; active means potentiation above 80%; inconclusive means 30% to 80%; inactive means below 30%; also: 0% is about no effect
# Target sequence (Q8NER1 whole entry, looked up): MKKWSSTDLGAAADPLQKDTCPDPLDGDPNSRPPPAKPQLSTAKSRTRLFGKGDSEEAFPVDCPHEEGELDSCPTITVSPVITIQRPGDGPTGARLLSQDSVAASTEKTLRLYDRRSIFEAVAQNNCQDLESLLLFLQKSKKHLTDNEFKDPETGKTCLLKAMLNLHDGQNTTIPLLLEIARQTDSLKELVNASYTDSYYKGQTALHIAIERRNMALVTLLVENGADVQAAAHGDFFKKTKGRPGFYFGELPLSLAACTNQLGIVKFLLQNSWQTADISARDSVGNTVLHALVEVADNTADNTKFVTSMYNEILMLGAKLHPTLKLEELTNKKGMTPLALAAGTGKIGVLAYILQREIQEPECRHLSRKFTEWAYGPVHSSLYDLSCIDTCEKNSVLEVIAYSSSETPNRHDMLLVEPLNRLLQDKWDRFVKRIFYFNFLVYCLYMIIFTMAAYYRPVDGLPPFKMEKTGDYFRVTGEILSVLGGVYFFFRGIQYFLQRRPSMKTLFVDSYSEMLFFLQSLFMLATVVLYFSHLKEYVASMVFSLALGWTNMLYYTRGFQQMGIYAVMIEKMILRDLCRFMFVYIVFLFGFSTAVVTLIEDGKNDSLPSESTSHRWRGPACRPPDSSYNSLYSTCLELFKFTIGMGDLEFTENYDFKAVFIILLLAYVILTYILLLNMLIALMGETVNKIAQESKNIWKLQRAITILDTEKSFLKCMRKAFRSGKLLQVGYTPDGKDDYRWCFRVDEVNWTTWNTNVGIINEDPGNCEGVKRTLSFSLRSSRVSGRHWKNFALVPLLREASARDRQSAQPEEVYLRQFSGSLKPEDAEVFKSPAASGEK
#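 TRPV1-expressing cells were cultured overnight at 35.5C and loaded with Fluo-8 calcium dye for 40 to 90 min at room temperature. After a 10 s baseline, compound was added and calcium influx was read kinetically for 3 min (ex 480/em 520 nm).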
# ClpP mod – qHTS Assay for Activators of ClpP; 340,000 tested, 1.9% active; Potency, µM (highest dose often 57.5 µM), for the others: at the highest dose activity change, negative = active; purified B. subtilis ClpP, FRET peptide cleavage, 20 min; ATP-dependent Clp protease proteolytic subunit (Bacillus subtilis (strain 168)), P80244; AID 651965, 2013; active = well fitted falling curve with a large enough effect; inconclusive = small, poorly fitted or top-dose-only effect; inactive = no such curve, though single readings can be large or run the other way; also: potency is read from the fitted curve at half-maximal effect; the source files actives as falling curves though it sought activators and does not explain the sign; nearly all actives have a fitted effect of over 65% in size; many hits overshoot -100%
# Target sequence (P80244 whole entry, looked up): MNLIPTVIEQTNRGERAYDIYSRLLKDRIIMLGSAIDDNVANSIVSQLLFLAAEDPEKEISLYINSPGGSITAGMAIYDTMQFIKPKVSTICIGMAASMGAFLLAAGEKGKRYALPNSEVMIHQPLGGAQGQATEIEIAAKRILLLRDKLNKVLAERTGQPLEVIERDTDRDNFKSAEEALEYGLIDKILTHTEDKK
#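 FRET quenching reversal measured ClpP activation: 10 microg/mL B. subtilis ClpP at pH 8 with the FRET-FV decapeptide, read at 430 nm after 320 nm excitation. The 20-min minus 0-min signal was scaled between DMSO/no-enzyme wells and ADEP (5.8 microM final).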
# * hit, by the source's call; ? = inconclusive; / = no result given; [ ] = dose if it differs, or a comment.
SMILES,Sfp PPTase inh,PINK1 modulator,TRPML1 blocker,Menin MLL FP FL,TRPML1 agonist,TRPV1 potentiator,ClpP mod
O=C(NCCN1CCOCC1)c1cc2cc([N+](=O)[O-])ccc2s1,-1.3%,-2.1%,-3.0,-1.6,1.8,-9.7,/
CCOc1cc(/C=N/NC(=O)CN2CCOCC2)ccc1OCc1ccccc1,16.2%,2.5%,32.6,1.1,0.1,-1.8,-23.8%
CCCCCn1c(=O)[nH]c2cc(C(=O)NCc3ccco3)ccc2c1=O,6.0%,15.2%,-22.4,0.0,-0.1,7.6,?
Cc1onc(-c2ccccc2)c1C(=O)Nc1ccc(S(=O)(=O)Nc2nccs2)cc1,10.9%,-0.4%,-0.2,7.0,0.6,-0.9,1.2%
Cn1c(=O)c2c(nc(CN3CCN(c4ccc(F)cc4)CC3)n2Cc2ccccc2F)n(C)c1=O,-23.1%,-1.4%[38.3 µM],4.2,2.3,0.6,0.0,-2.6%
CCOC(=O)N1CCN(S(=O)(=O)c2ccc(OCC(=O)OC)cc2)CC1,17.3%,?,-4.6,1.2,0.4,-12.9,-1.2%
COC(=O)C(NC(=O)C(C)NC(=O)OCc1ccccc1)C(C)C (configuration not stated),0.2%,0.0%,-12.3,4.7,-0.6,19.3,-0.6%
Cc1onc(-c2c(Cl)cccc2Cl)c1C(=O)N=C(N)N1CCOCC1,10.5%,-0.6%,25.7,8.5,-0.4,-1.8,/
C[C@H]1CN([C@@H](C)CO)S(=O)(=O)c2ccc(C#Cc3ccccn3)cc2O[C@H]1CN(C)Cc1ccc(F)cc1,/,0.0%,1.5,/,0.5,/,0.3%
COc1cc(CNCc2ccccc2Cl)ccc1OCC(=O)NC1CCCCC1,10.2%,1.7%,18.6,/,-0.2,-9.0,0.0%
Cc1ccnc2nc(C(=O)Nc3ccc4c(c3)OCO4)nn12,19.5%,-5.1%[38.3 µM],-24.6,2.9,-0.3,0.9,1.8%
CN1CCN(C(CNC(=O)C(=O)Nc2ccc(F)cc2F)c2ccc3c(c2)OCO3)CC1 (configuration not stated),/,-0.6%,-11.2,/,0.3,/,-2.3%
O=C(c1ccccc1NS(=O)(=O)c1ccc([N+](=O)[O-])cc1[N+](=O)[O-])N1O[C@@H]2C=C[C@H]1C2,/,5.5%,13.9,/,0.0,/,-10.8%
Cc1cc(NC(=O)CCC(=O)N(c2ccccc2F)C(C(=O)NC2CCCC2)c2ccccc2)no1 (configuration not stated),-0.2%,6.1%,-2.5,-0.3,1.5,-2.9,/
O=C(NC1CC1)c1ccc(NS(=O)(=O)c2ccc(F)cc2)cc1,/,-2.0%,-1.2,/,0.3,-5.1,/
Cc1ccc(NC(=O)CN(C)S(=O)(=O)c2ccc3c(c2)CCC(=O)N3)c(C)c1,/,0.7%,1.9,/,-0.9,/,4.0%
O=C(Nc1ccc(F)cc1Cl)C1CCN(C(=O)Nc2ccccc2)CC1,18.4%,0.6%,26.8,/,0.5,-24.4,1.2%
COc1cccc(NC(=O)c2cc3c(=O)n(C)c4ccccc4c3n2C)c1,/,3.7%,21.6,/,-0.6,/,215.7%
CCSc1ncnc2c1sc1nc3c(cc12)COC(C)(C)C3,8.3%,12.2%,4.5,9.1,-0.2,3.4,-0.9%
Cc1nnc(SCc2ccccc2Cl)c2cc3sccc3n12,/,-1.2%,4.3,/,3.7,/,-21.6%
COc1ccccc1NC(=O)Nc1nnc(C(C)C)s1,-4.6%,2.6%,10.4,1.6,0.3,-8.9,-0.5%
CCN1CCN(c2cc(C)c3cc(NC(=O)/C=C/c4ccc(C)cc4)ccc3n2)CC1,/,-0.4%,3.9,/,0.9,/,-8.2%
COc1ccccc1NC(=O)COc1cc(C)nc(C(C)C)n1,17.9%,3.6%[38.3 µM],-0.1,1.9,1.8,6.9,1.4%
COc1cc(OC)cc(C(=O)Nc2ccc3oc(-c4ccc(Cl)cc4)nc3c2)c1,/,3.9%,16.4,/,-0.4,/,-20.2%
Cc1nnc(SCC(=O)N(C)c2c(N)n(Cc3ccccc3)c(=O)[nH]c2=O)n1Cc1ccccc1,3.7%,-1.6%,7.1,-3.0,0.4,?,/
NC(=O)C1=C[C@@H](c2ccc(Br)cc2)C[C@@H](OCCCCO)O1,-0.1%,1.3%,-1.0,-3.2,-0.6,-10.5,-2.6%
CN(C(=O)CSc1nc(N)cc(N)n1)C1CCS(=O)(=O)C1 (configuration not stated),14.0%,1.8%,-6.3,/,0.2,20.7,0.2%
COc1ccccc1CNC(=O)c1cn(C)c2ccc(S(=O)(=O)N3CCCCC3)cc2c1=O,11.7%,/,/,-2.0,/,9.2,/
CC(NC(=O)c1cccs1)C1CCCO1 (configuration not stated),11.4%,0.1%,-0.6,-0.4,0.5,3.0,28.2µM*
N#CCC(=O)N/N=C/c1cccc(Oc2ccccc2)c1,0.9%,0.8%,41.8,5.8,-0.3,?,/
O=C(O)CCC(=O)N1CCN(c2ncccc2C(F)(F)F)CC1,15.0%,-0.5%,-5.3,-1.2,0.3,16.5,/
CCc1ccc(S(=O)(=O)Nc2cccc(-c3ccc(N4CCOCC4)nn3)c2)cc1,/,-0.5%,24.5,/,0.7,/,-1.3%
Cc1ccc(NC(=O)N2CCCC2C(=O)NCC2CCCCC2)cc1 (configuration not stated),12.3%,0.2%,-1.3,/,-0.6,2.7,/
Nc1ccc(SC(F)(F)F)cc1C(=O)c1ccccc1,14.5%,?,-16.7,2.9,0.8,-10.9,-4.7%
COc1ccc(-c2nnnn2C)cc1S(=O)(=O)NCc1ccccc1,13.6%,/,-8.5,2.0,-0.3,-1.9,-1.9%
CCCn1c(CCNc2nc(-c3ccc(Cl)c([N+](=O)[O-])c3)cs2)nc2cc(Cl)c(Cl)cc21,2.3%,4.7%,13.8,-0.6,-0.6,-11.4,-0.7%
Cc1noc(C)c1-c1nc(NCc2cccs2)c2ccccc2n1,70.8µM*,3.0%,/,0.1,/,/,/
C[C@H](CO)N1C[C@H](C)[C@@H](CN(C)C(=O)NC2CCCCC2)Oc2ccc(NC(=O)c3ccncc3)cc2C1=O,/,0.5%,15.5,/,0.1,/,0.6%
CC(=O)NC1(c2ccccc2)CCN(Cc2nnnn2C(C)(C)C)CC1,8.7%,-1.8%,15.2,2.6,3.3,-7.1,-3.5%
COc1ccc(NC(=O)CC2CC3CCC2C3)cn1 (configuration not stated),9.4%,-1.5%,13.0,-5.7,0.8,-25.7,/
CS(=O)(=O)c1ccc2nc(NC(=O)CCC(=O)c3cccs3)sc2c1,-5.7%,-0.3%,22.8,1.7,0.4,5.0,2.0%
Cc1c(C(=O)O)sc(S(=O)(=O)N2CCN(C(=O)CC(C)c3ccccc3)CC2)c1C(=O)O (configuration not stated),/,0.8%,0.8,/,4.8,/,1.0%
Cc1c(Cc2ccccc2)c(=O)oc2c(CN(C)C)c(O)c(Cl)cc12,-17.6%,-0.7%[38.3 µM],5.7,-4.4,0.1,?,?
COc1cc2[nH]c(=O)n(CCC(=O)NC3CCCC3)c(=O)c2cc1OC,11.6%,4.9%,9.9,1.1,-0.7,-3.1,28.2µM*
COC(=O)c1ccc(CN2CCCC(CCC(=O)NCc3ccc(C)o3)C2)cc1 (configuration not stated),10.3%,1.1%,-2.1,3.1,-0.5,1.2,/
COc1cccc(/C=C/C(=O)c2ccc3c(c2)OCCO3)c1OC,-16.0%,-1.9%,14.6,2.0,1.6,-9.2,/
Cc1ccc(SC(C)C(=O)Nc2cccnc2)cc1 (configuration not stated),11.5%,0.2%,7.7,3.5,-0.5,17.1,0.0%
Cc1ccc(NC(=O)CSc2nccn2-c2ccccc2)cc1,/,0.5%,-4.7,/,0.6,/,0.9%
CCS(=O)(=O)N1CCN(S(=O)(=O)c2ccc3c(c2)OCCO3)CC1,15.5%,1.3%,2.9,3.4,0.6,-5.4,/
CN1C[C@@H]2[C@@H]3C(=O)N(C)C(=O)[C@@H]3[C@](C)(C1=O)N2C(=O)c1ccc(C(F)(F)F)cc1,/,1.2%,-4.5,/,-0.5,/,-0.2%
CCOc1ccc(Cl)cc1-c1cc(C(=O)NCc2cccc(C(F)(F)F)c2)[nH]n1,/,-0.3%,/,/,1.1,/,-19.2%
COc1cc(NC(=O)c2cccc(COCC(F)(F)C(F)F)c2)cc(OC)c1OC,5.3%,3.3%,12.2,10.6,2.0,6.1,3.1%
COc1ccc(-n2c(SCC(=O)Nc3sc4c(c3C#N)CCCC4)nnc2-c2ccccc2OC)cc1,6.5%,-1.4%,-6.2,-1.3,-1.8,-0.9,0.7%
CC(/C=N/NC(=O)c1cccc([N+](=O)[O-])c1)=C\c1ccccc1,8.8%,12.8%[38.3 µM],-4.6,1.4,0.1,-13.5,3.3%
Nc1nnc(SCC(=O)OCC(=O)c2ccccc2Br)s1,14.1%,0.6%,-4.4,7.7,-0.1,-11.7,0.3%
Cc1ccc(/C=C2\SC(=S)N(C(Cc3ccccc3)C(=O)O)C2=O)cc1 (configuration not stated),-8.6%,1.1%,-8.5,1.3,1.0,0.2,-2.5%
CCOC(=O)c1cccc(NC(=O)CCc2c(C)nn(-c3ccc(N4CCCCC4)nn3)c2C)c1,/,1.7%,-16.5,/,1.5,/,-5.9%
Cc1ccc(C(=O)C(OC(=O)CCC(=O)Nc2cccc(C)c2)c2ccccc2)cc1 (configuration not stated),12.9%,6.1%[38.3 µM],5.7,2.8,-0.4,-11.2,-1.8%
COc1ccc(CNc2oc(-c3ccccc3)nc2C#N)cc1,-12.3%,3.9%,2.7,-0.4,0.3,-6.3,4.2%
COc1ccccc1NC(=O)CSc1nc(C)c2c(c1C#N)CCCC2,7.7%,15.9%,4.3,5.0,-1.3,-24.1,-1.2%
COc1ccc(/C=C/C(=O)c2cc(F)ccc2OC(=O)c2ccccc2OC)cc1OC,4.0%,-1.5%,30.6,1.8,0.4,18.3,/
Oc1ccccc1C(=S)N1CCN(c2cccc(Cl)c2)CC1,15.8µM*,2.8%,-0.5,-0.2,-0.8,-8.6,1.9%

# High-throughput results as filed in PubChem BioAssay.
